A1 inh = inhibitors of the anti-apoptotic protein A1, read as caspase activation | MEF A1-2A-BIM cells, Caspase-Glo 3/7 luminescence, 3 h; percent of clofoctol response, vehicle zero | AID 2462 | caspase activation, % (no concentration beside the values) | 0.066% of 330,000 active;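 active = over half of replicate activation scores above 10%, or exactly half above 10 with the replicate mean above 10; inconclusive = replicate mean below 10 yet half the replicates above 10; inactive = over half of replicates below 10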;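 also: wells of about 30 µL received 50 nL stock; many hits fall short of the cut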
Beta cell apopt = beta cell apoptosis inhibition. AID 435005. 0.8% of 300,000 active. INS-1E cytokine-induced death, ATP luminescence, 48 h; percent of positive-control rescue, neutral wells zero. protection from apoptosis, % (no concentration beside the values);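 active = all replicates at 75% or more, or half of them and the mean; inconclusive = half reach 75% but not the mean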;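 also: 0% = cytokine-treated negative control wells and 100% = positive control rescue; higher means more ATP so stronger rescue from cytokine killing; wells of about 40 µL received 100 nL stock; the first replicate is given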
T cruzi inh = T. cruzi replication inhibition; T. cruzi beta-gal in NIH3T3, luminescence, 90 h; inhibition, % (concentration not given with the values); 1.4% of 300,000 active; AID 1885;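 active = mean inhibition across valid replicates above about 55%, limit read from the data; inconclusive = mean below that limit but half or more replicates reach it; inactive = mean below it, under half of replicates reach it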;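 also: signal also drops with host cell toxicity which is not excluded here; 0% = plate median of DMSO wells and 100% = zero luminescence signal; higher percent means less beta-gal luminescence so fewer parasites; stock transfer was 50 nL into about 50 µL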
Calb FLC = C. albicans growth modulation with fluconazole; 0.57% of 300,000 active; C. albicans CaCi-2 (fluconazole-resistant clinical isolate) + fluconazole, Alamar Blue growth, 48 h; growth inhibition, % (concentration not given with the values);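 active = most replicates above 75%; inconclusive = exactly half above 75%; inactive = most below 75%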;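 also: all wells also contain fluconazole at 8 µg/ml as a sub-toxic cotreatment; 0% = median of DMSO wells and 100% = median of geldanamycin control wells; wells of about 8 µL received 7.5 nL stock; the first replicate is given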
rRNA inh HTS = inhibits bacterial ribosomal RNA function over humanized ribosomes; E. coli WT GFP vs humanized-ribosome RFP mutants, fluorescence, 24 h; hits give low values; DMSO median 0, no signal -100; GFP signal change (wild-type ribosome), % (concentration not given with the values); 1.6% of 350,000 active;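 active = significant combined selectivity score with lowered wild-type GFP, culture density cut under 30%, mutant RFP and density less affected; inactive = any of these conditions unmet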; also: one replicate is shown; some compounds called inactive have numbers as strong as hits
RanGTP-Imp inh = disruptors of Ran-importin-beta complex formation – biochemical, FRET, CFP-Ran, YFP-importin-beta, homogeneous, primary screen | cell-free CFP-Ran/YFP-importin-beta FRET ratio | inhibition, % (test concentration not listed) | 1.1% of 300,000 active;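 active = most replicates above 15%; inconclusive = exactly half above 15%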;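 also: 0% = DMSO wells and 100% = Ran loaded with GDP instead of GTP; wells of about 40 µL received 100 nL stock; the first replicate is given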
Vif A3G = inhibitors of Vif binding to APOBEC3G peptide, primary screen, biochemical, TR-FRET, GST-Vif 1-94, biotin-A3G peptide, dose response retest (AID 1117319). TR-FRET GST-Vif / biotin-A3G peptide binding; higher % means a stronger effect; test concentration not given here; strong numbers were not always called active. inhibition, %, or IC50 in µM where a hit was titrated. 0.57% of 260,000 active;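 active = above the screen mean plus three standard deviations and confirmed in dose response; inconclusive = results disagree or hit not tested in dose response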;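 also: Vif residues 1-94 fused to GST binding biotinylated APOBEC3G peptide 110-148; 0% = full assay without inhibitor and 100% = GST in place of GST-Vif; retest series ran down from 100 µM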
MLL AF4-AF9 inh = MLL-AF4/AF9 protein interaction inhibition | 0.47% of 350,000 active | inhibition, % at 10 µM | AID 651704 | P42568 | AlphaScreen, biotin-AF4 peptide binding to FLAG-AF9;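 active = every replicate reaching a set inhibition limit, whatever the replicate mean, cut at about 25% in these data; inconclusive = mean inhibition reaches that limit but some replicates miss it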;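 also: 0% = plate neutral control median and 100% = total signal loss; the record names both 10 and 1 µM as test concentration; the first replicate is given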
Target sequence (P42568 whole entry, looked up): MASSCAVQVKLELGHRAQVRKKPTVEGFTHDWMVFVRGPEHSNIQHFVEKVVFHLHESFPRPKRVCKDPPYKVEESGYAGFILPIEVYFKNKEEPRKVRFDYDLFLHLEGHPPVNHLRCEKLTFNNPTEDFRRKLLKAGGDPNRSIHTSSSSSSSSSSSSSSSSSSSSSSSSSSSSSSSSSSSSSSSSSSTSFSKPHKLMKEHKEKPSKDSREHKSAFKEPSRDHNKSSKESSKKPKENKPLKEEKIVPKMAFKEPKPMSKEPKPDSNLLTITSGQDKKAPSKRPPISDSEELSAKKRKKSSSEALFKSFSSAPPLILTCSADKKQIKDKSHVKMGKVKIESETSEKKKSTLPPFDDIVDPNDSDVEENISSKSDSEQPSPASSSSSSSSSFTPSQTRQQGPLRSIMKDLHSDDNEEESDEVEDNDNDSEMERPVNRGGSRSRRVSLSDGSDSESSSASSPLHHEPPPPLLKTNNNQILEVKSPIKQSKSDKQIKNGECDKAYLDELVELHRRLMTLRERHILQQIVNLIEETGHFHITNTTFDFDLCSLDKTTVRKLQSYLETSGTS
rRNA inh HTS OD600 = recorded beside rRNA inh HTS, whose call it bears; OD600 change, %; measured here: OD600 growth;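 optical density of the mix in the first replicate; 0 = DMSO median and -100 = no signal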
rRNA inh HTS RFP = also measured in rRNA inh HTS; calls as there; RFP signal change, %; measured here: RFP humanized mutant strains;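 first replicate; 0 = DMSO median and -100 = no signal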
* marks the source's active call; other numbers are inactive results; & = joins results of further samples. Some of the compounds tested (hit frequency here may not be typical).

How did CCOC(=O)c1cnc2ccccc2c1NCc1ccco1 do in these assays?
A1 inh: -1.1; Beta cell apopt: 1; T cruzi inh: 23; Calb FLC: 2; rRNA inh HTS: -29*; RanGTP-Imp inh: 3.8; Vif A3G: 11%; MLL AF4-AF9 inh: -0.7; rRNA inh HTS OD600: 0.4*; rRNA inh HTS RFP: -4.8*

What do the screens show for `Cc1ccsc1/C=N/n1c(-c2cc(-c3ccccc3)n[nH]2)n[nH]c1=S`?
A1 inh: 0.5; Beta cell apopt: 1; T cruzi inh: 16; Calb FLC: 5; rRNA inh HTS: 1; RanGTP-Imp inh: -6.4; Vif A3G: -3%; MLL AF4-AF9 inh: -0.6; rRNA inh HTS OD600: 9; rRNA inh HTS RFP: 1.8

How did c1ccc(COc2ccc(Nc3ncnc4nc[nH]c34)cc2)cc1 do in these assays?
A1 inh: -1.3; Beta cell apopt: 7; T cruzi inh: -10; Calb FLC: 0; rRNA inh HTS: -8; RanGTP-Imp inh: -2.4; Vif A3G: -4%; MLL AF4-AF9 inh: 4.1; rRNA inh HTS OD600: -23; rRNA inh HTS RFP: -3.4

How did O=C1CC(c2ccc(F)cc2)Sc2ccccc2N1 (stereo not given) do in these assays?
A1 inh: 0.0; Beta cell apopt: 2; T cruzi inh: -7; Calb FLC: -13; RanGTP-Imp inh: 3.1; Vif A3G: -6%&31%

How did CC(=O)[C@@]1(O)C(C)CC2C3C=C(C)C4=Cc5c(cnn5-c5ccccc5)C[C@]4(C)C3C(O)C[C@@]21C (stereo not given in full) do in these assays?
A1 inh: 0.4; Beta cell apopt: -2; T cruzi inh: 64*; rRNA inh HTS: 12; RanGTP-Imp inh: 0.9; Vif A3G: -8%; MLL AF4-AF9 inh: 0.9; rRNA inh HTS OD600: 10; rRNA inh HTS RFP: 0.1

How did Cc1ccccc1NC(=O)COC(=O)CCc1nc2ccccc2c(=O)[nH]1 do in these assays?
A1 inh: 0.0; Beta cell apopt: -3; T cruzi inh: -3; Calb FLC: -5; rRNA inh HTS: 12; RanGTP-Imp inh: 0.7; Vif A3G: -7%; MLL AF4-AF9 inh: -7.0; rRNA inh HTS OD600: 5; rRNA inh HTS RFP: -3.2

Results for O=C(CSc1nnc(-c2cccs2)o1)N1CCCCC1 ?
A1 inh: -0.3; Beta cell apopt: -1; T cruzi inh: -5; Calb FLC: 2; rRNA inh HTS: -1; RanGTP-Imp inh: -0.9; Vif A3G: 1%; MLL AF4-AF9 inh: -2.5; rRNA inh HTS OD600: -1; rRNA inh HTS RFP: -1.1

What do the screens show for `COc1cccc(C2=NOC(C(=O)Nc3ccc(OC)c(OC)c3)C2)c1` (stereo not given)?
A1 inh: -0.4; Beta cell apopt: -1; T cruzi inh: 8; Calb FLC: 5; RanGTP-Imp inh: 1.9; Vif A3G: 0%

How did Cc1c(C(=O)Nc2ccc(C(=O)Nc3ccccc3)cc2)cccc1[N+](=O)[O-] do in these assays?
A1 inh: 0.2; Beta cell apopt: -6; T cruzi inh: 3; Calb FLC: -9; rRNA inh HTS: 7; RanGTP-Imp inh: -1.8; Vif A3G: 5%; MLL AF4-AF9 inh: -1.7; rRNA inh HTS OD600: 10; rRNA inh HTS RFP: -2.9

How did COc1ccc2[nH]c(C)c(CCNC(=S)Nc3ccc(C)cc3)c2c1 do in these assays?
A1 inh: 0.9; Beta cell apopt: -5; T cruzi inh: 29; Calb FLC: 18; rRNA inh HTS: -6; RanGTP-Imp inh: -9.5; MLL AF4-AF9 inh: 13; rRNA inh HTS OD600: 0; rRNA inh HTS RFP: -2.6

How did Cc1sc2nc(C(C)Nc3ccccc3N3CCOCC3)[nH]c(=O)c2c1C (stereo not given) do in these assays?
A1 inh: 0.1; Beta cell apopt: 4; T cruzi inh: 15; Calb FLC: -1; RanGTP-Imp inh: 4.3; Vif A3G: 10%

What do the screens show for `COn1c(SCc2cccnc2)nc2ccccc2c1=O`?
A1 inh: -0.6; Beta cell apopt: 5; T cruzi inh: -6; Calb FLC: 1; RanGTP-Imp inh: 9.9; Vif A3G: 25%

How did CS(=O)(=O)c1cccc(S(=O)(=O)N2CCN(c3ccccn3)CC2)c1 do in these assays?
A1 inh: 0.4; T cruzi inh: -1; Calb FLC: -4; rRNA inh HTS: 1; RanGTP-Imp inh: -0.8; MLL AF4-AF9 inh: 1.2; rRNA inh HTS OD600: 2; rRNA inh HTS RFP: -1.7

How did CCOc1ccc(S(=O)(=O)Nc2ccncc2)c(C)c1C do in these assays?
A1 inh: 0.4; T cruzi inh: -12; Calb FLC: 1; rRNA inh HTS: 8; RanGTP-Imp inh: inconclusive; Vif A3G: 9%; MLL AF4-AF9 inh: 2.0; rRNA inh HTS OD600: -6; rRNA inh HTS RFP: -1.6

What do the screens show for `Cc1cccc(-c2cc(C(=O)N3CCCc4ccccc43)c3ccccc3n2)c1`?
A1 inh: -1.5; Beta cell apopt: 2; T cruzi inh: 22; Calb FLC: 28; RanGTP-Imp inh: 0.4

How did COc1ccccc1NS(=O)(=O)c1cc(Cl)ccc1OC do in these assays?
A1 inh: 0.9; Beta cell apopt: -1; T cruzi inh: 7; Calb FLC: -2; RanGTP-Imp inh: -6.7; Vif A3G: 32%

How did Cc1c(C(=O)Oc2cccc3cccnc23)cccc1[N+](=O)[O-] do in these assays?
A1 inh: -1.8; Beta cell apopt: 0; T cruzi inh: 0; Calb FLC: -1; rRNA inh HTS: 14; RanGTP-Imp inh: 3.4; Vif A3G: 7%; MLL AF4-AF9 inh: 2.8; rRNA inh HTS OD600: 15; rRNA inh HTS RFP: 2.5

Results for CCOC(=O)N1CCN(C(=O)C2CCN(S(=O)(=O)c3ccc(Br)s3)CC2)CC1 ?
A1 inh: -0.1; T cruzi inh: -2; Calb FLC: 2; RanGTP-Imp inh: -0.4; Vif A3G: -2%&-7%

How did CCN(C(=O)CCN1C(=O)c2ccccc2S1(=O)=O)c1ccccc1 do in these assays?
A1 inh: 5.7*; Beta cell apopt: -7; T cruzi inh: -9; Calb FLC: 4; rRNA inh HTS: 1; RanGTP-Imp inh: -1.0; MLL AF4-AF9 inh: 3.6; rRNA inh HTS OD600: 1; rRNA inh HTS RFP: 1.0

How did CCOC(=O)CSc1nn(C)c(=S)s1 do in these assays?
A1 inh: 0.4; T cruzi inh: -21; Calb FLC: -6; rRNA inh HTS: 1; RanGTP-Imp inh: 9.8; Vif A3G: 9%; MLL AF4-AF9 inh: -6.1; rRNA inh HTS OD600: 2; rRNA inh HTS RFP: -1.7

What do the screens show for `O=Nc1c(-c2c(O)[nH]c3cc(Br)ccc23)[nH]c2ccccc12`?
A1 inh: -0.5; Beta cell apopt: 10; T cruzi inh: 3; Calb FLC: 53; rRNA inh HTS: -17; RanGTP-Imp inh: 5.0; MLL AF4-AF9 inh: 4.1; rRNA inh HTS OD600: 8; rRNA inh HTS RFP: 20

What do the screens show for `COC(=O)c1ccc(=O)n(Cc2ccc3c(c2)OCO3)c1`?
A1 inh: -0.7; Beta cell apopt: -5; T cruzi inh: -5; Calb FLC: 6; RanGTP-Imp inh: -2.1; Vif A3G: 19%

What do the screens show for `O=C(Nc1cnc2ccccc2c1)N1CCOCC1`?
A1 inh: -3.5; Beta cell apopt: -4; T cruzi inh: -2; Calb FLC: -4; RanGTP-Imp inh: 0.6; Vif A3G: 2%

What do the screens show for `CC(C)OC(=O)C1C(=O)CC(C)(O)C(C(=O)OC(C)C)C1c1ccc([N+](=O)[O-])cc1` (stereo not given)?
A1 inh: 1.1; Beta cell apopt: 3; T cruzi inh: 23; Calb FLC: 0; rRNA inh HTS: 6; RanGTP-Imp inh: -4.7; Vif A3G: 9%; MLL AF4-AF9 inh: -0.6; rRNA inh HTS OD600: -3; rRNA inh HTS RFP: -3.2

How did O=C(CCC(=O)Nc1ccccc1Cl)NNC(=O)c1ccco1 do in these assays?
A1 inh: 0.3; Beta cell apopt: 2; T cruzi inh: -9; Calb FLC: -6; RanGTP-Imp inh: 1.0

How did O=C(Nc1cccc(F)c1)Nc1ccc2c(c1)OCO2 do in these assays?
A1 inh: -9.5; Beta cell apopt: 1; T cruzi inh: 20; Calb FLC: -21; rRNA inh HTS: 0; RanGTP-Imp inh: 4.0; MLL AF4-AF9 inh: -2.3; rRNA inh HTS OD600: 1; rRNA inh HTS RFP: -0.7

How did COc1cc(C)nc(N2CCC(C(=O)NC3CCCCC3)CC2)n1 do in these assays?
A1 inh: -1.1; Beta cell apopt: 0; T cruzi inh: -6; Calb FLC: -27; rRNA inh HTS: 7; RanGTP-Imp inh: -0.3; Vif A3G: 0%; MLL AF4-AF9 inh: -22; rRNA inh HTS OD600: 2; rRNA inh HTS RFP: -1.4

Results for CC(=O)N1CCCN(Cc2cn(-c3cccc(C)c3)nc2-c2cccc(F)c2)CC1 ?
A1 inh: 0.7; Beta cell apopt: -1; T cruzi inh: 8; Calb FLC: 6; rRNA inh HTS: -10; RanGTP-Imp inh: inconclusive; Vif A3G: 20%; MLL AF4-AF9 inh: 14; rRNA inh HTS OD600: -16; rRNA inh HTS RFP: 17

What do the screens show for `O=C(CN1CCSc2ccccc21)NCCCc1ccccc1`?
A1 inh: 1.9; Beta cell apopt: -4; Calb FLC: -10; rRNA inh HTS: -1; Vif A3G: -2%; MLL AF4-AF9 inh: 4.9; rRNA inh HTS OD600: 0; rRNA inh HTS RFP: 4.7

Results for CSc1cccc(NC(=S)N(Cc2ccccc2)Cc2ccccn2)c1 ?
A1 inh: 0.8; Beta cell apopt: 5; T cruzi inh: 2; Calb FLC: -4; rRNA inh HTS: 6; RanGTP-Imp inh: -3.2; MLL AF4-AF9 inh: -1.3; rRNA inh HTS OD600: 0; rRNA inh HTS RFP: -0.3

How did CC1(C(=O)N2CCN(c3ccccc3)CC2)CC1(Cl)Cl (stereo not given) do in these assays?
A1 inh: 0.4; Beta cell apopt: -2; T cruzi inh: 0; Calb FLC: -1; rRNA inh HTS: -19; RanGTP-Imp inh: -0.5; Vif A3G: 10%; MLL AF4-AF9 inh: 0.3; rRNA inh HTS OD600: -22; rRNA inh HTS RFP: 2.7

Results for CCCC/C=C/C(NC(=O)c1ccc(-c2ccccc2)cc1)c1ccccc1 (stereo not given) ?
A1 inh: 0.7; Beta cell apopt: 3; T cruzi inh: 22; Calb FLC: -5; rRNA inh HTS: 7; RanGTP-Imp inh: -3.6; MLL AF4-AF9 inh: -1.8; rRNA inh HTS OD600: 6; rRNA inh HTS RFP: -3.3
